PKD1 inh – inhibitors of human PKD1 kinase; PKD1 kinase fluorescence polarization assay; 0.056% of 200,000 active; Q15139; AID 797; inhibition, %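 (about 10 µM by stock and volumes)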;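 active = inhibition of 50% or more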;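 also: controls were vehicle for no effect and a reference inhibitor for full effect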
Insulin prom inh – TRM-6 insulin promoter activity inhibition; TRM-6 cells (human fetal islet line), insulin promoter-eGFP reporter, imaging; reporter expression induced with tamoxifen; inhibition, % at 2 µM; 0.9% of 130,000 active;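 active = inhibition above the mean plus 3 SD, with well images judged a real hit on visual review, cut at about 60% in these data, passing the limit was not always enough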
HSV augment – HSV replication enhancement. 0.005% of 220,000 active. HSV replication augmentation in cells, fold increase. maximum fold increase;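 active = peak rise of 1.5-fold or more in the series; tested in PC3 cells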;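 also: first round at 10 µM; read as green reporter fluorescence; hits show the peak of a series up to 25 µM; 1 = signal of infected wells without compound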
GALR2 ag – agonists of human galanin receptor 2 (GALR2). 0.48% of 140,000 active. O43603. activation, %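 (tested at 5 µM)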. GALR2-expressing cells, agonist activation read-out;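 active = above mean plus 3 SD of all compounds, about 5% in these data, not always enough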;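 also: 0% = vehicle buffer wells and 100% = reference agonist at full effect; tested in CHO reporter cells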
Target sequence (O43603 whole entry, looked up): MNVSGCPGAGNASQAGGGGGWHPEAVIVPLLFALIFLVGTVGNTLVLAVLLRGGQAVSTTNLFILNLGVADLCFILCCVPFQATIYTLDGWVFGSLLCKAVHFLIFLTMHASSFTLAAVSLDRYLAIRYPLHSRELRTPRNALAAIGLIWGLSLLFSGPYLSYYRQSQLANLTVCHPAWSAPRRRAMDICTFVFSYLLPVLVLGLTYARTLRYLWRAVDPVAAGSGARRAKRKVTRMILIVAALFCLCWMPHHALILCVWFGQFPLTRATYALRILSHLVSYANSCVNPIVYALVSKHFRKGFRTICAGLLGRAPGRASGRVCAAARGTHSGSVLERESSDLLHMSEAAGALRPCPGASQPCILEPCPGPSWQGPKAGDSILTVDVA
RGS16-Gao – RGS16-Galphao interaction regulator (human). bead-based flow cytometry RGS16-Galphao binding, fluorescence; actives lie on both sides. 0.38% of 220,000 active. O15492+P09471. binding response (% of control), % at 10 µM;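 active = below 25% or above 175%, edge rows of some plates excepted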;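 also: Galphao activated by GDP with aluminum fluoride before binding; 100% = wells without compound and 0% = beads without RGS; some results beyond the cut were filed as inactive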
Target sequence (O15492 whole entry, looked up): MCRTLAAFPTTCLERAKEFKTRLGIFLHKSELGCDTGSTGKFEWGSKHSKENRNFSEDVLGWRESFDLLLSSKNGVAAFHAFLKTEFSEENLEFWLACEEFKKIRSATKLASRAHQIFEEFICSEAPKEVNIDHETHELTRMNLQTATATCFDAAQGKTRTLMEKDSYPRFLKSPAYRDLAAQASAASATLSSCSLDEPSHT
Target sequence (P09471 whole entry, looked up): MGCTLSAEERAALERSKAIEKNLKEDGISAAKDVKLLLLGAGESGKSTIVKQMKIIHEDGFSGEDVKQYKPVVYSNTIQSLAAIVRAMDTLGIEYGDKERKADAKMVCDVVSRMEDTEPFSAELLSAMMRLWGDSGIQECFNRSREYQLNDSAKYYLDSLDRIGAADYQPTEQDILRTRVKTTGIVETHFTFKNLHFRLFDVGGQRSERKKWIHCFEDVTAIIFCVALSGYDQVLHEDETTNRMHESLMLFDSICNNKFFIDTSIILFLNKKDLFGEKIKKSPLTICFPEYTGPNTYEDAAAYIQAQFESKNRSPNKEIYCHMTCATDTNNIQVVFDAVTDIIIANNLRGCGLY
Insulin prom inh cell count – also measured in Insulin prom inh; calls as there; normalized cell count, %; measured here: cell count, toxicity; reference of the scale not given here;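 cells exposed to compound for 48 h; stained nuclei by imaging scaled within each plate; lower means fewer cells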
HSV augment primary fold – second read-out of HSV augment, no call of its own (marks repeat the call); fold increase; compound at 10 µM; measured here: primary screen fold increase 10 uM; tested in PC3 cells;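 GFP signal in the first replicate; 1 = infected wells without compound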
* = called active by the depositor.

`O=[N+]([O-])c1ccc(SCc2c(F)cccc2Cl)nc1` gave HSV augment inactive, RGS16-Gao 99.9 and HSV augment primary fold 0.84.
For COc1ccc(NC(=O)c2sc(N)nc2-c2ccccc2)cc1 the results were PKD1 inh -1.4, Insulin prom inh -71.4, HSV augment inactive, RGS16-Gao 101.3, Insulin prom inh cell count 120.5 and HSV augment primary fold 0.95.
`O=C(Nc1ccc(Cl)cc1)N1CCN(c2ccc3nnc(-c4ccc(F)cc4)n3n2)CC1` gave PKD1 inh 12.5, HSV augment inactive, GALR2 ag 0.8, RGS16-Gao 103.4 and HSV augment primary fold 0.7.
For Cc1ccc(Cl)cc1N(CC(=O)N1CCCCCC1)S(C)(=O)=O the results were PKD1 inh -1.4, HSV augment inactive, GALR2 ag -2.5, RGS16-Gao 102.1 and HSV augment primary fold 0.97.
COc1cc(C2c3c(-c4cc(C)cc(C)c4O)n[nH]c3C(=O)N2CCCO)cc(OC)c1OC (stereo not given) was read as PKD1 inh -5.3, Insulin prom inh -21.4, HSV augment inactive, GALR2 ag -1.1, RGS16-Gao 102.1, Insulin prom inh cell count 86.0 and HSV augment primary fold 0.86.
For Cc1ccc(Cn2ncc(Cl)c(Cl)c2=O)cc1 the results were PKD1 inh 4.3, Insulin prom inh -68.0, HSV augment inactive, GALR2 ag 0.0, RGS16-Gao 88.2, Insulin prom inh cell count 74.4 and HSV augment primary fold 0.54.
Screening COc1ccc(NC(=O)COC(=O)Cc2c(F)cccc2Cl)cc1OC returned PKD1 inh -3.1, HSV augment inactive, RGS16-Gao 103.5 and HSV augment primary fold 0.99.
`COc1ccc(NC(=O)N(Cc2cc3cc(OC)ccc3[nH]c2=O)CC2CCCO2)cc1` (stereo not given) gave PKD1 inh -11.7, Insulin prom inh -18.2, HSV augment inactive, GALR2 ag -2.0, RGS16-Gao 103.0, Insulin prom inh cell count 114.4 and HSV augment primary fold 0.86.
Screening CC(=O)Nc1ccc(S(=O)(=O)Nc2ccc(S(=O)(=O)N3CCCC3)cc2)cc1 returned PKD1 inh -7.5, Insulin prom inh 37.5, GALR2 ag -1.0, RGS16-Gao 106.6 and Insulin prom inh cell count 125.1.
CCOP(=O)(c1ccc(N(C)C)cc1)C(O)c1ccc(Cl)cc1 (stereo not given) was read as PKD1 inh -10.2, Insulin prom inh 0.0, HSV augment inactive, GALR2 ag -1.5, RGS16-Gao 103.2, Insulin prom inh cell count 64.1 and HSV augment primary fold 0.96.
For O=C(CN1CCN(C(=O)c2ccco2)CC1)Nc1ccc(Cl)c(C(F)(F)F)c1 the results were PKD1 inh -9.1, Insulin prom inh 50.0, HSV augment inactive, GALR2 ag -2.4, RGS16-Gao 156.4, Insulin prom inh cell count 78.6 and HSV augment primary fold 0.95.
Clc1ccc2oc(-c3cccnc3)nc2c1 was read as PKD1 inh -4.7, Insulin prom inh 5.7, HSV augment inactive, GALR2 ag -0.7, RGS16-Gao 98.1, Insulin prom inh cell count 165.3 and HSV augment primary fold 1.02.
`CCCc1cc(=O)[nH]c(SCC(=O)NN(c2ccccc2)c2ccccc2)n1` gave PKD1 inh 1.6, HSV augment inactive, RGS16-Gao 99.3 and HSV augment primary fold 1.03.
`COC(=O)c1ccc(C(=O)OC)c(NC(=O)COC(=O)C2CCCCC2)c1` gave PKD1 inh 0.9, Insulin prom inh 16.7, HSV augment inactive, GALR2 ag 0.3, RGS16-Gao 97.3, Insulin prom inh cell count 104.4 and HSV augment primary fold 1.05.
Screening O=C(O)c1ccc(-c2nc(-c3cccc(C(F)(F)F)c3)cs2)cc1 returned PKD1 inh -1.1, HSV augment inactive, RGS16-Gao 95.8 and HSV augment primary fold 1.06.
For O=C1N=C(N2CCOCC2)S/C1=C/c1cc2c(cc1[N+](=O)[O-])OCO2 the results were HSV augment inactive, RGS16-Gao 102.9 and HSV augment primary fold 0.74.
Screening Cn1c(Cn2c(=O)sc3ccccc32)nnc1SCC(=O)NCC1CCCO1 (stereo not given) returned PKD1 inh -8.1, HSV augment inactive, GALR2 ag -0.6, RGS16-Gao 99.4 and HSV augment primary fold 1.12.
For CCCCNC(=O)Nc1ccccc1C(=O)Nc1ccc(OC)cc1 the results were PKD1 inh -4.0, Insulin prom inh -42.9, HSV augment inactive, GALR2 ag 0.2, RGS16-Gao 112.4, Insulin prom inh cell count 130.1 and HSV augment primary fold 0.73.
For O=C(CN1C(=O)c2cccc3cccc1c23)N1CCN(c2cccc(Cl)c2)CC1 the results were PKD1 inh 3.9, Insulin prom inh 16.2, HSV augment inactive, GALR2 ag -2.1, RGS16-Gao 98.9, Insulin prom inh cell count 78.7 and HSV augment primary fold 0.9.
Screening CN(CCc1ccccn1)S(=O)(=O)c1ccccc1F returned PKD1 inh -0.3, Insulin prom inh 38.5, HSV augment inactive, GALR2 ag -2.4, Insulin prom inh cell count 156.4 and HSV augment primary fold 0.91.

Reprinted from the part before: three compounds; new compounds follow.
For CCCCNC(=O)Nc1ccccc1C(=O)Nc1ccc(OC)cc1 the results were PKD1 inh -4.0, Insulin prom inh -42.9, HSV augment inactive, GALR2 ag 0.2, RGS16-Gao 112.4, Insulin prom inh cell count 130.1 and HSV augment primary fold 0.73.
For O=C(CN1C(=O)c2cccc3cccc1c23)N1CCN(c2cccc(Cl)c2)CC1 the results were PKD1 inh 3.9, Insulin prom inh 16.2, HSV augment inactive, GALR2 ag -2.1, RGS16-Gao 98.9, Insulin prom inh cell count 78.7 and HSV augment primary fold 0.9.
Screening CN(CCc1ccccn1)S(=O)(=O)c1ccccc1F returned PKD1 inh -0.3, Insulin prom inh 38.5, HSV augment inactive, GALR2 ag -2.4, Insulin prom inh cell count 156.4 and HSV augment primary fold 0.91.
Screening C=CCOc1c(Br)cc(/C=N/O)cc1OCC returned PKD1 inh -5.3, HSV augment inactive, GALR2 ag -1.9, RGS16-Gao 106.1 and HSV augment primary fold 0.82.
CCc1nnc(NC(=O)c2cc(-c3cccnc3)nc3ccccc23)s1 was read as PKD1 inh -6.2, HSV augment inactive, RGS16-Gao 98.0 and HSV augment primary fold 0.96.
For COc1ccc2cc(C3CC(c4cccs4)=NN3S(C)(=O)=O)c(Cl)nc2c1 (stereo not given) the results were PKD1 inh 0.3, HSV augment inactive, GALR2 ag -0.2, RGS16-Gao 100.0 and HSV augment primary fold 1.02.
Screening COC(=O)c1nc2n(n1)C(c1cccc(Cl)c1)C1=C(CC(C)(C)CC1=O)N2 (stereo not given) returned PKD1 inh -7.2, HSV augment inactive, GALR2 ag -0.9, RGS16-Gao 101.1 and HSV augment primary fold 0.9.
For COc1ccccc1-c1cc(C2CC2)nc(N)c1C#N the results were PKD1 inh -16.3, Insulin prom inh 36.4, HSV augment inactive, GALR2 ag -0.2, RGS16-Gao 111.6, Insulin prom inh cell count 112.6 and HSV augment primary fold 0.95.
Screening Cc1nnc(CN(C)Cc2cn[nH]c2-c2ccc(-c3ccccc3)cc2)o1 returned PKD1 inh -3.7, HSV augment inactive, RGS16-Gao 95.6 and HSV augment primary fold 1.07.
`CC1CCc2c(sc3nn[nH]c(=O)c23)C1` (stereo not given) gave PKD1 inh -0.1, Insulin prom inh 20.0, HSV augment inactive, GALR2 ag -1.9, RGS16-Gao 108.2, Insulin prom inh cell count 94.1 and HSV augment primary fold 1.14.
For CN1CCN(CCN2CCn3c2nc2ccccc23)CC1 the results were PKD1 inh 5.3, Insulin prom inh 14.3, HSV augment inactive, GALR2 ag -3.4, RGS16-Gao 103.4, Insulin prom inh cell count 146.5 and HSV augment primary fold 0.97.
For O=C(Nc1cccc(-c2nnc(-c3ccccc3)o2)c1)C1CC1 the results were PKD1 inh -0.3, HSV augment inactive, RGS16-Gao 102.2 and HSV augment primary fold 0.9.
For CCNC(=S)NNC(=O)c1cc(CC(C)C)nc2ccccc12 the results were PKD1 inh 5.0, HSV augment inactive, GALR2 ag -2.1, RGS16-Gao 100.4 and HSV augment primary fold 1.08.
Screening CCCCOc1ccc(C(=O)NCCC(=O)NCCCC(=O)OCC)cc1 returned HSV augment inactive, RGS16-Gao 112.4 and HSV augment primary fold 0.89.
Screening CCCC(=O)Nc1nnc(COC)s1 returned PKD1 inh 1.9, Insulin prom inh 89.5*, HSV augment inactive, GALR2 ag 0.0, RGS16-Gao 109.0, Insulin prom inh cell count 65.3* and HSV augment primary fold 1.06.
`COc1ccc(OC)c(C(=O)Cn2nnc(-c3ccc(N4CCOCC4)cc3)n2)c1` gave HSV augment inactive, RGS16-Gao 98.2 and HSV augment primary fold 0.89.
`COCCn1nnnc1CN(Cc1cccnc1)Cc1cc2cc(OC)ccc2[nH]c1=O` gave PKD1 inh -12.6, Insulin prom inh -37.5, HSV augment inactive, GALR2 ag -0.8, RGS16-Gao 115.8, Insulin prom inh cell count 108.8 and HSV augment primary fold 1.07.
CNC(=S)N(Cc1cccs1)Cc1cc2ccc(OC)cc2[nH]c1=O was read as PKD1 inh -1.9, Insulin prom inh 0.0, HSV augment inactive, GALR2 ag -0.6, RGS16-Gao 101.5, Insulin prom inh cell count 91.4 and HSV augment primary fold 1.01.
`N=c1c2c(-c3ccccc3)c(-c3ccccc3)n(Cc3ccco3)c2ncn1CCCO` gave HSV augment inactive, RGS16-Gao 88.6 and HSV augment primary fold 0.87.
`O=C(NCC1CCCO1)C(c1ccc(N2CCOCC2)cc1)N(C(=O)Cn1nnc2ccccc21)c1ccccc1F` (stereo not given) gave PKD1 inh 4.8, Insulin prom inh 30.0, HSV augment inactive, RGS16-Gao 99.3, Insulin prom inh cell count 110.9 and HSV augment primary fold 1.08.
Screening O=C(COC(=O)c1ccccc1NC(=O)c1ccco1)NC1CC1 returned PKD1 inh -1.4, HSV augment inactive, RGS16-Gao 103.4 and HSV augment primary fold 1.06.
`O=c1cc(CO)oc(CN2CCC(Cc3ccccc3)CC2)c1O` gave PKD1 inh -14.3, HSV augment inactive, GALR2 ag -2.3, RGS16-Gao 107.0 and HSV augment primary fold 0.9.
For CCN(CC)S(=O)(=O)c1cccc(C(=O)N2CCCCC2)c1 the results were PKD1 inh -4.4, Insulin prom inh 25.0, HSV augment inactive, GALR2 ag -1.1, RGS16-Gao 101.0, Insulin prom inh cell count 122.0 and HSV augment primary fold 0.973.
Screening Cc1nn(CC(=O)Nc2ccccn2)c(=O)c2ccccc12 returned PKD1 inh 2.8, Insulin prom inh 0.0, HSV augment inactive, GALR2 ag -2.1, RGS16-Gao 106.5, Insulin prom inh cell count 103.1 and HSV augment primary fold 0.94.
Cc1ccc(OCCn2cc(C(=S)N3CCCC3)c3ccccc32)cc1C was read as PKD1 inh 6.4, Insulin prom inh -113.0, HSV augment inactive, GALR2 ag -0.6, RGS16-Gao 102.9, Insulin prom inh cell count 67.0 and HSV augment primary fold 0.56.
Screening C=CCn1c(O)c(N=NC(=S)Nc2ccccc2C)c2cc(S(=O)(=O)N3CCOCC3)ccc21 returned PKD1 inh -12.3, Insulin prom inh -306.2, HSV augment inactive, GALR2 ag -2.3, RGS16-Gao 104.3, Insulin prom inh cell count 8.1 and HSV augment primary fold 0.88.
Screening NCC12CC3CC(C1)CC(c1ccc(Cl)cc1)(C3)C2 returned PKD1 inh 14.7, Insulin prom inh -39.5, HSV augment inactive, RGS16-Gao 92.5, Insulin prom inh cell count 105.6 and HSV augment primary fold 0.59.
Screening COc1ccc(C2Nc3ccccc3C(=O)N2c2ccc(C)cc2)cc1Cn1nnc2ccccc21 (stereo not given) returned PKD1 inh -3.4, Insulin prom inh 50.0, HSV augment inactive, GALR2 ag 1.2, RGS16-Gao 102.3, Insulin prom inh cell count 35.8 and HSV augment primary fold 0.8.
For COC(=O)c1ccc(COC(=O)c2ccc(CS(=O)(=O)c3ccc(C)cc3)cc2)cc1 the results were PKD1 inh -3.1, Insulin prom inh -7.0, HSV augment inactive, GALR2 ag -3.1, RGS16-Gao 98.7, Insulin prom inh cell count 122.9 and HSV augment primary fold 1.
CCOc1cc(/C=C2\CCCC(C(=O)C(F)(F)F)=C2O)ccc1O was read as PKD1 inh -8.2, Insulin prom inh -42.9, HSV augment inactive, GALR2 ag 0.4, RGS16-Gao 87.4, Insulin prom inh cell count 133.7 and HSV augment primary fold 0.87.
`CCN1CCN(Cc2cccc(Oc3ccccc3)c2)CC1` gave PKD1 inh -2.1, HSV augment inactive, GALR2 ag -1.9, RGS16-Gao 120.5 and HSV augment primary fold 0.81.
`CCCn1nc2cc(C(=O)NCc3ccc(OC)cc3)ccc2c1OCC` gave PKD1 inh 6.6, HSV augment inactive, GALR2 ag -2.4, RGS16-Gao 103.2 and HSV augment primary fold 0.86.
Screening Cc1cc(C)c(C(=O)COC(=O)CCNS(=O)(=O)c2c(Cl)cccc2Cl)cc1C returned PKD1 inh -10.3, Insulin prom inh 40.3, HSV augment inactive, GALR2 ag -0.9, RGS16-Gao 147.2, Insulin prom inh cell count 67.5 and HSV augment primary fold 1.
For COC(=O)c1ccccc1NC(=O)Nc1cnccn1 the results were PKD1 inh -5.2, Insulin prom inh 6.2, HSV augment inactive, GALR2 ag -0.4, RGS16-Gao 98.8, Insulin prom inh cell count 141.7 and HSV augment primary fold 1.06.
